Compound activity deposited in PubChem BioAssay by National Center for Advancing Translational Sciences (NCATS).
nsP2pro inh: CHIKV nsP2 protease inhibition, primary qHTS | AID 1964107 | Potency, µM (doses to about 24.9 µM), inactives show at the top dose activity change, negative = inhibition, most hits filed as inhibitors | Q8JUX6 | hit rate 1.1% among 31,000 | FRET peptide cleavage, nsP2pro, fluorescence 1 h; active means well fitted inhibition curve with a large enough effect; inconclusive means small, poorly fitted or top-dose-only effect; inactive means no such curve, though single readings can be large or run the other way; further: nearly all actives have a fitted effect of over 60% in size; a reference inhibitor and vehicle were the controls
Target sequence (Q8JUX6 whole entry, looked up): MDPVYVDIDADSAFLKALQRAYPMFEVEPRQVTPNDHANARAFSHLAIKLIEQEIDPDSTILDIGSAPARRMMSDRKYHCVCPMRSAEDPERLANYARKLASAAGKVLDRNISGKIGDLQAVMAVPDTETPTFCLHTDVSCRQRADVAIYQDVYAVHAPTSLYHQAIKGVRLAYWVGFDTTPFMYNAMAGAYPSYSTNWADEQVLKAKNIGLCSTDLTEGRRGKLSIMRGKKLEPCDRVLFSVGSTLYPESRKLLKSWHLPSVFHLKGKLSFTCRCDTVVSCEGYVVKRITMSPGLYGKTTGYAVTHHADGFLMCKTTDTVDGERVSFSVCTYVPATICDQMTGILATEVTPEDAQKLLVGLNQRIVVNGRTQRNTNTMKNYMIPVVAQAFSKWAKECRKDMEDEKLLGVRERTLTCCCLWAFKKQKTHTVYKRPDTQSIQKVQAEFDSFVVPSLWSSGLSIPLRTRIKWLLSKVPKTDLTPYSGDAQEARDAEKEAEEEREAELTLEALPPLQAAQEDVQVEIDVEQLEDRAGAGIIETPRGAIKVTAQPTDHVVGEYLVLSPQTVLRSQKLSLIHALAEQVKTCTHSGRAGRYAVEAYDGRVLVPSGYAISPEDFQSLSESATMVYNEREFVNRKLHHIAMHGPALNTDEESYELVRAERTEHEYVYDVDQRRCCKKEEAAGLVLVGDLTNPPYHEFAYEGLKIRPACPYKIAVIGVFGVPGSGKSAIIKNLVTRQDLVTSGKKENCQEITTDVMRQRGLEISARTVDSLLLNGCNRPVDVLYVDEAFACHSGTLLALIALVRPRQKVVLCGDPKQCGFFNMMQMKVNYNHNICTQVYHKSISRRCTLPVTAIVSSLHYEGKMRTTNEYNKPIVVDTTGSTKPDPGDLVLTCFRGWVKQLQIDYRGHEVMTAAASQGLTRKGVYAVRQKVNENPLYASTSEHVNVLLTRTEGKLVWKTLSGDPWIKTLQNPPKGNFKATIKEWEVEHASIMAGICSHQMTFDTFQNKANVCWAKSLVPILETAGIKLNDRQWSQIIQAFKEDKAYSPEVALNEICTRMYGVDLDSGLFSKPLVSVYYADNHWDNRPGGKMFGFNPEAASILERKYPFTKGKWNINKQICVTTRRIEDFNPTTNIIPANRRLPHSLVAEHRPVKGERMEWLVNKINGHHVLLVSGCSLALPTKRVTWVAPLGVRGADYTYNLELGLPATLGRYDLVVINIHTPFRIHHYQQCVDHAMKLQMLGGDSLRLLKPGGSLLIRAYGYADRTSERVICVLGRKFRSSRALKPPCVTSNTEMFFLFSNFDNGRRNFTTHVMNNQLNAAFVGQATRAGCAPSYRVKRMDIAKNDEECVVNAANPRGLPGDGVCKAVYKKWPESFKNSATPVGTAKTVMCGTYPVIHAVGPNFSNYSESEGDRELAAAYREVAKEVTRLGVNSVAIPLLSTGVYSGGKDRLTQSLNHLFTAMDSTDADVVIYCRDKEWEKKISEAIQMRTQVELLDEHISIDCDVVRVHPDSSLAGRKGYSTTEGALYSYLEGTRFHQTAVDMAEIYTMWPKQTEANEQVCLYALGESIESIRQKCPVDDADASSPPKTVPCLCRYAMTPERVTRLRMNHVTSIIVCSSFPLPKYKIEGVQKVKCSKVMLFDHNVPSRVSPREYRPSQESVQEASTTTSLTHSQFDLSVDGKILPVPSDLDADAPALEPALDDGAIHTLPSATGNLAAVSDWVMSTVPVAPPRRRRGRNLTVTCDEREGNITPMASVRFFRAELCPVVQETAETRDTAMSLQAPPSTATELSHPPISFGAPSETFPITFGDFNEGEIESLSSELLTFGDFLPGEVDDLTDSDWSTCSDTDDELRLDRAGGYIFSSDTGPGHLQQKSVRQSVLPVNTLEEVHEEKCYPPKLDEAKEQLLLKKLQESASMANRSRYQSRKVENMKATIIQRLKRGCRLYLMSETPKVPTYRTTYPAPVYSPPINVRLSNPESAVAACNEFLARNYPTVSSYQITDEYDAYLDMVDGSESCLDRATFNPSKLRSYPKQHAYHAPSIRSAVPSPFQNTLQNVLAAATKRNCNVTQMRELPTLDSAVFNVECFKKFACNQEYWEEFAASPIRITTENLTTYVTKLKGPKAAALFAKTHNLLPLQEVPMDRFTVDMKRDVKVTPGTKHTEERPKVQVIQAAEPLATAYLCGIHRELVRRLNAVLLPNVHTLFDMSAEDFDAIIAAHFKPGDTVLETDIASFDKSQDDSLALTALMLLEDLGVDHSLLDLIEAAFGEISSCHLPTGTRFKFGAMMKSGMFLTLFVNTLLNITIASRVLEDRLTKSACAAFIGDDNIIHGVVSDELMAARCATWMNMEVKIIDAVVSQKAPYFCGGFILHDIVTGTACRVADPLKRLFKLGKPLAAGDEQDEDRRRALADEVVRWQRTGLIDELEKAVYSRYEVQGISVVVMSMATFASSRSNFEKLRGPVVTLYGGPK
* = called active by the depositor; i = inactive; ? = inconclusive; [ ] = another dose, or the depositor's remark. On the % scale 0 is the no-effect control and ±100 the full control effect; potency means the concentration at half of the fitted maximal effect. These rows are one share of the data; count on the stated rates, not on these rows.

Start of the listing, in advance (2 entries):
SMILES	nsP2pro inh
N#Cc1c(-c2cccc(Cl)c2)no[n+]1[O-]	i
COc1ccc(-c2c(C)c3ccc(O)c(CN4CCCC4)c3oc2=O)cc1	-22%

The list itself, from the start:
SMILES	nsP2pro inh
N#Cc1c(-c2cccc(Cl)c2)no[n+]1[O-]	i
COc1ccc(-c2c(C)c3ccc(O)c(CN4CCCC4)c3oc2=O)cc1	-22%
Cc1cccc(S(=O)(=O)Nc2cccc(-c3ccc(N4CCCCC4)nn3)c2)c1	-3%
CCNc1ncc(C(=O)NC2CC(c3nnc(CO)n3CC)C2)cn1 (configuration not stated)	-1%
COc1ccc(-c2nc(C)c(CCNC(=O)c3ccco3)s2)cc1	-9%
O=C(CSCc1ccccc1Cl)NCc1ccc(Cl)c(Cl)c1	-15%
COc1ncccc1-c1nccn2c(C3CN(Cc4ccccc4O)C3)ncc12	i
CCn1ncnc1C1CC(=O)Nc2cc(OC)c(NS(C)(=O)=O)cc21 (configuration not stated)	-6%
OCc1c[nH]c2ccccc12	-25%
COC(=O)c1cncc(NC(=O)c2cccs2)c1	i
CCc1ccc(NC(=O)C(=O)NCC(c2ccc3c(c2)OCO3)N2CCOCC2)cc1 (configuration not stated)	-22%
O=C(CCn1nc(-c2ccc(Cl)cc2)c2ccccc2c1=O)Nc1ccc(OC(F)(F)F)cc1	-19%
CCCCCCCCCC(=O)OCCN1CCN(CC/C=C2/c3ccccc3Sc3ccc(Cl)cc32)CC1	-6%
Cc1ccc(OCCn2c(CCNC(=O)Cc3cccc(F)c3)nc3ccccc32)cc1	-11%
O=C(NC[C@@H]1CN(c2ccc(N3CCOCC3=O)cc2)C(=O)O1)c1ccc(Cl)s1	-24%
CCOc1cc(CNC(=O)c2ccc(C)c(NC(=O)c3nsc4ccccc34)c2)ccc1OC	-22%
COc1ccc(CNC(=O)[C@H]2O[C@H](CCN(C)CCc3ccccc3)CC[C@@H]2O)cc1	i
CCOC(=O)c1sc(NC(=O)c2nc3ncccn3n2)c(C(=O)OC)c1C	-7%
CCCCCCCCCCCCCCCC(=O)OCC(=O)[C@@]1(O)[C@H](C)C[C@H]2[C@@H]3CCC4=CC(=O)C=C[C@]4(C)[C@@]3(F)[C@@H](O)C[C@@]21C	-5%
CCc1noc(-c2ccc(N(C)Cc3ccc(OC)cc3)c([N+](=O)[O-])c2)n1	-20%
CN1CCN(C(=O)c2ccc3nnc(C4CCCC4)n3c2)CC1	0%[39.2 µM]
CC(=O)Nc1ccn(C2COC(COC(=O)c3ccccc3)O2)c(=O)n1 (configuration not stated)	-4%
COc1cccc2c1cc1c(=O)n(CC(=O)N3CCN(c4cccc(C)c4)C(C)C3)nc(C)n12 (configuration not stated)	-17%
Nc1cccc2c1CN(C1CCC(=O)NC1=O)C2=O (configuration not stated)	-7%
CCOc1ccc(CNC(=O)CCC(=O)N2CC(C)Sc3ccccc32)cc1 (configuration not stated)	-17%
COc1cccc(CNC(=O)c2ccc3c(c2)nc2n3CCOC2)c1	-19%
Cc1nnc(SCc2cc(=O)n3c(C)cccc3n2)s1	-14%
Oc1ccc(NCc2ccccc2OCc2ccccc2F)cc1	8.9µM*
CCc1noc(-c2cn(C3CCN(C(=O)COc4ccccc4)C3)nn2)n1 (configuration not stated)	-1%
Cc1nc(CCNc2cc(C3CC(O)C3)nc(N)n2)nc2c1CCC2 (configuration not stated)	-2%
CCCCS(=O)(=O)N1CCC(F)(c2nc(-c3ccccc3)no2)CC1	0%
O=C(NCCc1ccc(Cl)cc1)c1nc(-c2ccc(Cl)cc2Cl)c2ccccn12	i
CCCCS(=O)c1sc2nc(-c3cccs3)cc(-c3ccccc3)c2c1N (configuration not stated)	7µM*
COC(=O)OCOc1c2n(ccc1=O)N([C@@H]1c3ccccc3SCc3c1ccc(F)c3F)[C@@H]1COCCN1C2=O	-6%
COCC1CN(Cc2ccc(OC)c(OC)c2Cl)CC12CCNCC2 (configuration not stated)	4%
COc1ccc(C2c3c(n(Cc4ccccc4)cnc3=N)Oc3ccc4ccccc4c32)cc1OC (configuration not stated)	3%
CC1(C)CCC(C)(C)c2cc(Cn3cccn3)c(/C=C/c3ccc(C(=O)O)cc3)cc21	18%
COc1ccc(C(=O)N2CCCC2c2nc(CCOc3cccc(C)c3)no2)cn1 (configuration not stated)	2%
Cc1ccc2c(c1)cc1c(=O)n(CC(=O)NC(C)CCc3ccccc3)nc(C)n12 (configuration not stated)	-28%
Clc1cccc(CSc2ccc(-c3cccs3)nn2)c1	11%
Cc1cc(C)nc(NC(=S)N2CCN(c3noc4ccccc34)CC2)c1	-4%
CC(CNS(=O)(=O)C(C)C)c1ccc(-c2ccc(C#N)cc2)cc1 (configuration not stated)	-8%
Cc1ccc(-c2cc(C(=O)Nc3ccccn3)c3ccccc3n2)cc1C	-7%
CSc1ccc(C2c3c(oc4cc(C)cc(C)c4c3=O)C(=O)N2CCO)cc1 (configuration not stated)	-9%
O=c1oc2c3c(ccc2c2ccccc12)OCN(Cc1cccc(Cl)c1)C3	-13%
COc1ccccc1C(=O)NC[C@@H]1C=C(C)[C@H](CC(=O)NCc2ccccn2)C[C@H]1C(C)C	?
COC(=O)c1ccccc1NC(=O)c1cc2nc(-c3ccccc3)cc(-c3ccccc3)n2n1	-19%
CC(C)C1=CC2C(CC[C@]2(C)O)[C@](C)(O)CC1 (some centres not stated)	?
Cc1ccc(NC(=O)Cn2c(=O)n(CCc3ccccc3)c(=O)c3c4c(sc32)CCCC4)c(C)c1	-8%
C/C=C1\[C@H](O[C@@H]2O[C@H](CO)[C@@H](O)[C@H](O)[C@H]2O)OC=C(C(=O)OC)[C@H]1CC(=O)OC[C@H]1O[C@@H](OCCc2ccc(O)cc2)[C@H](O)[C@@H](O)[C@@H]1O	24%[10 µM]
S=C(Nc1cc(Cl)ccn1)N1CCN(c2ccc(Cl)cc2Cl)CC1	0%
O=C(O)C1(Oc2cccc(F)c2)CCN(Cc2ccc(CO)o2)CC1	-12%
Cc1cccc(C)c1-n1ncc(C(=O)O)c1C1CCN(C(=O)OC(C)(C)C)CC1	-29%
O=C(Nc1nc(-c2ccccc2)cs1)c1cccc(NS(=O)(=O)c2nccs2)c1	i
O=C(O)c1cccc(-c2noc(-c3ccc(F)cc3)n2)c1	i
Cc1ccc(C)c(NC(=O)N2CCC(n3cnnc3C3CC3)C2)c1 (configuration not stated)	i
COc1cccc(CNC(=O)C2CCCN(c3nnc(-n4c(C)ccc4C)s3)C2)c1OC (configuration not stated)	-15%
COc1ccccc1C(=O)Nc1c(C(=O)N(CCN(C)C)Cc2ccco2)oc2ccccc12	37%[activator]
Cc1ccc([C@H]2C[C@@H](O)[C@@H](O)[C@@H]2NCC(C)C)cc1	-13%[39.2 µM]
Cc1ccc(C)c(-c2ccc(=O)n(C(C)C(=O)Nc3ccccc3C(F)(F)F)n2)c1 (configuration not stated)	-16%
The list goes on:
SMILES	nsP2pro inh
CCn1c(CC2CCN(Cc3ccccc3C#N)CC2)nn(C)c1=O	i
CCc1cc(=O)n(CC(=O)NCCc2ccc(Cl)cc2)c(N2CCOCC2)n1	i
CN1CC[C@@H](c2c(O)cc(O)c3c(=O)cc(-c4ccccc4Cl)oc23)[C@@H](O)C1	1%
COc1cccc(C(=O)NC2(C(F)(F)F)C(=O)Nc3c2c(=O)[nH]c(=O)n3-c2ccc(C)cc2)c1 (configuration not stated)	-31%
CCOC(=O)c1c(NC(C)=O)c2c3c(sc2n1Cc1cc(C)ccc1C)CCCC3	-26%
O=C(O)COc1nn(Cc2ccccc2)c2ccccc12	-1%
Cc1cccc(C(C)(C)C)c1NC(=O)N1CCN2C(=O)CNC(=O)C2C1 (configuration not stated)	1%
CCCNC(=O)[C@@H]1Cc2cn(Cc3nccn3C)c3cccc(c23)[C@H](CC(C)C)N1	-23%[39.2 µM]
CC(C)(Oc1nn(CC2CCOCC2)c2ccccc12)C(=O)NCc1ccncc1	0%[39.2 µM]
CC(NC(=O)c1cc2sccc2n1Cc1ccc(F)cc1)c1ccccc1 (configuration not stated)	-13%
N#Cc1cc(NC(=O)Nc2nnc(-c3ccncc3)s2)ccc1Cl	0%
NC(=O)C1CCN(c2nc(-c3cccc(N)c3)cs2)CC1	i
CC1=C(C)C(=O)C(C(CCCCCC(=O)O)c2ccccc2)=C(C)C1=O (configuration not stated)	-4%
COc1ccc(-c2nc(CNS(=O)(=O)c3ccccc3)cs2)cc1	-10%
CCc1nnc(SC(CC)C(=O)NCCOC)c2cc3occc3n12 (configuration not stated)	-22%
OCC1(CCCc2ccccc2)CCCNC1 (configuration not stated)	i
O=S(=O)(Nc1nccs1)c1ccc(NCc2cccc(Br)c2O)cc1	i
COc1cccc(CNc2ccc(C(=O)Nc3nccs3)cc2)c1O	i
CCN1CCC(N2CCC3(CC2)CC2C(=O)N(CC)C(=O)N2C3)CC1 (configuration not stated)	i
Cc1nncn1C1CN(S(=O)(=O)c2ccc3c(c2)CCC3)C1	0%

Looked up one by one from the entries so far:
SMILES	nsP2pro inh
CC(C)C1=CC2C(CC[C@]2(C)O)[C@](C)(O)CC1 (some centres not stated)	?
CCc1noc(-c2cn(C3CCN(C(=O)COc4ccccc4)C3)nn2)n1 (configuration not stated)	-1%
CCCCCCCCCC(=O)OCCN1CCN(CC/C=C2/c3ccccc3Sc3ccc(Cl)cc32)CC1	-6%
OCC1(CCCc2ccccc2)CCCNC1 (configuration not stated)	i
CC(=O)Nc1ccn(C2COC(COC(=O)c3ccccc3)O2)c(=O)n1 (configuration not stated)	-4%

The results go on:
SMILES	nsP2pro inh
COc1ccc2oc(-c3ccc(C)c(NC(=O)c4ccc5c(c4)OCCO5)c3)nc2c1	-9%
FC(F)(F)c1ccc(/C=C/c2nc(COc3ccc(CCCCn4ccnn4)cc3)co2)cc1	-6%
O=C(Nc1ccccc1F)N[C@H]1N=C(c2ccccc2)c2ccccc2NC1=O	-14%
CCC(C)C(=O)OC1C(C)C2(O)C(C=C(CO)CC3(O)C(=O)C(C)=CC32)C2C(C)(C)C12OC(=O)C(C)C (configuration not stated)	?
Cn1ncnc1COc1nn2c(-c3c(F)cccc3F)nnc2cc1C1CCC1	-11%
CNC(=O)Cn1nc(C(=O)N2CCC3(CC2)[C@H](O)C[C@@H]3O)cc1C	2%
O=C(NCc1nnc2n1C(C(=O)NC1CC1)CC2)c1ccc(Cl)cc1Cl (configuration not stated)	-10%
COCC1(CNS(=O)(=O)c2ccc(Cl)cc2)C[C@@H](O)[C@@H](O)C1 (some centres not stated)	?
Cc1nc(C2CCN(C(=O)Cc3ccccc3)CCN2C(=O)Cc2ccccc2)n[nH]1 (configuration not stated)	?
COc1ccc(-n2c(C)nc3c(cnn3-c3ccc(C)c(C)c3)c2=O)cc1Cl	-14%
Cc1ccc(-c2cc(C(=O)NCc3cccs3)nn3cnnc23)cc1	i
COCCOc1ncccc1-c1noc([C@@H]2CCCN2Cc2ccc(OC)cc2O)n1	-1%[39.2 µM]
CC(C)N1Cc2cc(C(=O)NC3CCN(Cc4ccccc4)CC3)sc2C1	?
Cc1cc(C)nc(NC(=S)N2CCN(c3nccc4occc34)CC2)c1	-3%
CC(=O)CCC(=O)O	-23%
O=C(CN1CC2CC(C1)[C@H]1CCCC(=O)N1C2)N1CCN(c2ccc(Cl)cc2)CC1 (some centres not stated)	-2%
CC1=C(c2ccc(C)c(C)c2)S(=O)(=O)N(Cc2ccc(C(=O)Nc3cc(F)ccc3F)cc2)C1=O	-19%
COc1cc(/C=C/CO)ccc1O[C@@H]1O[C@H](CO)[C@@H](O)[C@H](O)[C@H]1O	?
Nc1c(C(=O)NCc2cccs2)nnn1CC(=O)Nc1cccc(F)c1	-17%
Cc1cc(N2CCC(C)CC2)nc2ccc(NC(=O)CCC(=O)N3CCN(c4ccccc4F)CC3)cc12	-6%

Looked up above:
In nsP2pro inh, CC(=O)CCC(=O)O shows -23%
In nsP2pro inh, O=C(CN1CC2CC(C1)[C@H]1CCCC(=O)N1C2)N1CCN(c2ccc(Cl)cc2)CC1 (some centres not stated) shows -2%
In nsP2pro inh, Nc1c(C(=O)NCc2cccs2)nnn1CC(=O)Nc1cccc(F)c1 shows -17%

Reformatted: entries from further up
smiles | nsP2pro inh
Nc1c(C(=O)NCc2cccs2)nnn1CC(=O)Nc1cccc(F)c1 | -17%
Cc1cc(N2CCC(C)CC2)nc2ccc(NC(=O)CCC(=O)N3CCN(c4ccccc4F)CC3)cc12 | -6%

Other compounds
SMILES	nsP2pro inh
COc1ccc(-c2cnc(-c3cccc4c3-c3ccccc3C4=O)o2)cc1	?
CCC(COC)n1nnc2c(Nc3ccc(OC)cc3C)nc(C)cc21 (configuration not stated)	-18%
O=C(C1CCCCC1)N1CCC(OC2CCN(Cc3cccnc3)CC2)CC1	i
Cc1cn2cc(CC(=O)N3CCC4(CC3)CN(Cc3ccc(-n5nccn5)cc3Cl)C4)nc2s1	89%[activator]
CN(C)CCCNc1ncnc2ccc(-c3ccc4c(c3)OCO4)cc12	-5%
COc1ccc(-c2nc(SCC(=O)NC3CCCC3)c(-c3ccc(C)cc3)[nH]2)cc1OC	-7%
CCN1C(=O)Cc2cc(C(=O)Nc3ccc(F)cc3)ccc21	-3%
CC1(C(=O)N2CCC(C3CCN(S(C)(=O)=O)CC3)C2)CCOCC1 (configuration not stated)	-6%
CCOc1cc(CCNC(=O)c2cc3sccc3n2Cc2ccccc2)cc(F)c1OCC	5%
COc1ccc(NC(=O)Nc2cccc(C)n2)c(OC)c1	-13%
CCCc1cc(=O)n2[nH]c(NCc3c(F)cccc3Cl)nc2n1	-6%
CN1C(=O)Cc2cc([S+](=O)([O-])N3CCN([S+](=O)([O-])c4c(F)cccc4F)CC3)ccc21	i
O=C(CCc1nnn2c1CN(C(=O)c1cccc3[nH]ccc13)CC2)N1CCCC1	-8%
